Screens from PubChem BioAssay.
Hsc70 ATP site: Hsc70 inhibitors, probe displacement, primary screen, biochemical, fluorescence polarization (AID 568); 83,000 tested, under 10 active; Hsc70 fluorescence polarization, probe displacement; higher % means a stronger effect; strong numbers were not always called active; displacement, % at 20 µM, or IC50 in µM where a hit was titrated;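 active means displacement above 50% without optical interference and an IC50 on retest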;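 further: ATPase domain with a fluorescein-tagged ATP probe; 0% = vehicle and 100% = excess ADP; read after one hour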
MT1-MMP reporter: MT1-MMP gene expression reporter suppression – cell-based, luciferase reporter, luminescence (AID 618); actives 0.62% (n = 87,000); MT1-MMP promoter luciferase reporter cells, luminescence; calls from a first round at 10 µM; hits with a dose series show EC50 in µM;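 active means over half of the reporter light lost at 10 µM or EC50 under 50 µM; inactive means the rest and hits that failed the dose series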;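 further: actives suppress MT1-MMP promoter-driven transcription so potencies describe inhibitors; HT1080 fibrosarcoma cells; overnight exposure; toxic or luciferase-blocking compounds were not removed from the actives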
WNV NS2B-NS3 inh: blocks West Nile virus NS2B-NS3 protease activity | z-score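 (tested at a level between 10 and 100 µM)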 | actives 0.18% (n = 65,000) | P06935 | WNV NS2B-NS3 protease, fluorogenic substrate Ex360/Em465; stronger effect = lower value;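 active means z-score at -3 or under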;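 further: score is relative to mean and spread of the compound wells of a plate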
Target sequence (P06935 1371-1501 limits assumed): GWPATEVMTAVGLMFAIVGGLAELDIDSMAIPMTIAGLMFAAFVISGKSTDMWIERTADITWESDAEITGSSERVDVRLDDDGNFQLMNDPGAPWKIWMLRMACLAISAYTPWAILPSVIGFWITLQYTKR
Target sequence (P06935 1502-1679 limits assumed): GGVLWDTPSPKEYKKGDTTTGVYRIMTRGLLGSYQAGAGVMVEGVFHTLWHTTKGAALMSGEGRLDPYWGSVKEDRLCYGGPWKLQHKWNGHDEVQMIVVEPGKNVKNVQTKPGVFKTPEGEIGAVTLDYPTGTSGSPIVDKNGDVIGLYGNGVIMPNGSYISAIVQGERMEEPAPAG
Starred values were filed as active, the others as inactive; i = inactive; · = no result given.

SMILES	Hsc70 ATP site	MT1-MMP reporter	WNV NS2B-NS3 inh
Cn1c(=O)c(C(=O)CN2CCOCC2)c(N)n(Cc2ccccc2)c1=O	4.0%	i	0.48
CCn1c(SCC(=O)c2[nH]c(C)c(C(C)=O)c2C)nnc1-c1ccncc1	2.2%	i	-0.59
C=CCn1c(-c2cccs2)nc2ccccc21	3.0%	i	0.96
COc1ccc(-n2c(Cc3cccn3C)nnc2SCC(=O)Nc2cc(Cl)ccc2OC)cc1	3.9%	i	-1.7
CCOc1ccc(CCN2C(=O)CCC2(C)C(=O)NC(C)CC)cc1OCC (centres undefined)	12%	i	-0.04
CCCCN(C(=O)NC(=O)Nc1cc(C)ccc1C)S(C)(=O)=O	0.8%	i	1.4
CCn1c(SCC(=O)Nc2nc(C)c(C(=O)OC)s2)nnc1C(C)C	-2.8%	i	0.14
O=C(CSc1nnc(Cn2c(=O)sc3ccccc32)n1-c1ccccc1)NCc1ccco1	-1.0%	i	-0.44
O=[N+]([O-])c1ccc(N2CCN(c3ccc(Cl)nn3)CC2)c(Cl)c1	2.5%	i	·
CCNC(=O)NC(=O)CSc1nc2ccccc2n1CC(C)C	-4.9%	i	·
CC(O)C(O)C(O)C(O)C1NCCS1 (centres undefined)	-0.5%	i	0.32
Cc1cccn2cc(-c3ccc(F)cc3)nc12	-5.5%	i	1.8
COc1ccc(C)c(S(=O)(=O)Nc2ccc(OCC(=O)O)cc2)c1	-1.2%	i	1.3
CCOC(=O)N1CCN(CC(O)COC2CC(C)CC(C)(C)C2)CC1 (centres undefined)	-7.1%	i	0.39
O=C(CSc1ncn(-c2ccccc2)n1)Nc1ccc(Br)cn1	0.7%	i	-0.12
Cn1c(SCC(=O)n2c3c(c4ccccc42)CCCC3)nnc1-c1ccccc1	0.7%	i	·
CCOC(=O)N1CCN(C(=O)CN(c2cccc(C)c2)S(=O)(=O)c2ccc(C)cc2)CC1	3.1%	i	-0.29
C=CCSc1nc2ccccc2c2nc(-c3ccccc3)nn12	2.5%	i	·
CCOC(=O)Cc1csc(NC(=O)c2cccc(N3C(=O)CCC3=O)c2)n1	0.5%	i	-1.1
CCc1cc2c(SCC(=O)c3ccc(C)cc3)ncnc2s1	-6.3%	i	·
CCOCCCNC(=O)CCSc1ccc(C)cc1	3.3%	i	·
O=C(O)Cc1ccc(NC(=O)c2cccs2)cc1	-2.3%	i	0.18
CCOC(=O)c1c(-c2ccc(C)o2)csc1NC(=O)CSc1nnnn1-c1ccccc1	-1.0%	i	1.5
Nn1c(SCc2ccccc2)nnc1-c1ccco1	0.4%	i	-1.1

The last 7 records of the section before open the next one:
SMILES	Hsc70 ATP site	MT1-MMP reporter	WNV NS2B-NS3 inh
C=CCSc1nc2ccccc2c2nc(-c3ccccc3)nn12	2.5%	i	·
CCOC(=O)Cc1csc(NC(=O)c2cccc(N3C(=O)CCC3=O)c2)n1	0.5%	i	-1.1
CCc1cc2c(SCC(=O)c3ccc(C)cc3)ncnc2s1	-6.3%	i	·
CCOCCCNC(=O)CCSc1ccc(C)cc1	3.3%	i	·
O=C(O)Cc1ccc(NC(=O)c2cccs2)cc1	-2.3%	i	0.18
CCOC(=O)c1c(-c2ccc(C)o2)csc1NC(=O)CSc1nnnn1-c1ccccc1	-1.0%	i	1.5
Nn1c(SCc2ccccc2)nnc1-c1ccco1	0.4%	i	-1.1
CC(=O)c1cc(C(=O)Nc2ccc(C(=O)O)cc2)oc1C	5.0%	i	·
CNc1nc(C)c(C#N)cc1C(C)=O	-7.3%	i	-0.14
CN(Cc1nc(-c2ccccn2)no1)S(=O)(=O)c1ccc(Cl)cc1	13%	i	-0.54
CC(=O)N(c1cccc(C)c1)C1SC(=O)N(c2ccccc2)C1=O (centres undefined)	-4.7%	i	1.5
CN(Cc1ccccc1)Cc1nc2c([nH]1)c(=O)[nH]c(=O)n2C	4.9%	i	-0.41
CNCC(O)Cn1c(C(F)(F)F)nc2ccccc21 (centres undefined)	-4.2%	i	·
COc1cc2c(cc1OC)-c1cc(NC3CC3)nc(=O)n1CC2	-2.9%	i	-0.0014
Cc1ccc(C(=O)Cn2ncsc2=N)cc1	-2.2%	i	·
N#C/C(=C(/O)COC(=O)CCc1ccc(S(=O)(=O)N2CCOCC2)cc1)c1nc2ccccc2[nH]1	-9.5%	i	0.21
Cc1cccc(NC(=O)C2CC(=O)OC23CCCC3)c1 (centres undefined)	-1.7%	i	·
CC(C)N(C(=O)Cn1c(SCC(=O)N2CCN(c3ccccc3)CC2)nc2ccccc21)C(C)C	0.2%	i	-1.1
O=C(c1cccc(Cl)c1)N1CCN(C(=O)c2ccco2)CC1	4.1%	i	0.05
Cc1nnc(SCC(=O)N2CCCCC2)n1CC1CCCO1 (centres undefined)	1.3%	i	·
CN(C)CC(C)(C)CNC(=O)C1CCN(Cc2ccccc2O)CC1	0.2%	i	-1.4
Cc1ccccc1-c1nc(CN2CCCC(C(=O)NCCCN3CCOCC3)C2)c(C)o1 (centres undefined)	-2.6%	i	-0.86
COCCn1c(=O)c2cc3c(=O)n(CCOC)c(=O)c3cc2c1=O	9.2%	i	·
O=C(Nc1cccnc1)c1cnn2c(C(F)F)cc(C3CC3)nc12	4.3%	i	1.4
COc1ccc(CC(=O)n2nc(-c3cccnc3)nc2N)cc1	2.8%	i	-0.28
CCOc1cc(C)nc(NCCc2ccc(OC)c(OC)c2)n1	0.9%	i	-0.27
COc1ccc(/C(O)=C2/C(=O)C(=O)N(CCN3CCOCC3)C2c2ccc(C)cc2)cc1 (centres undefined)	1.1%	i	-2
Cc1ccc(C)c(S(=O)(=O)NCc2ccc(C(=O)N3CC(C)OC(C)C3)cc2)c1 (centres undefined)	-4.6%	i	·
CCOc1ccc(C(=O)NCc2cccnc2)cc1	-0.7%	i	-0.7
CC1CCCC2(C1)NC(=S)c1c(sc3c1CCCC3)N2 (centres undefined)	-2.7%	i	·
Cc1ccc(Cn2c(C)nc3c(c2=O)c2nc4ccccc4nc2n3Cc2ccco2)cc1	-10%	i	-1.2
CCCn1c(N)c(C(=O)CN2CCN(S(=O)(=O)c3cccs3)CC2)c(=O)[nH]c1=O	-3.4%	i	-0.62
CC(O)CNc1ncnc2nc[nH]c12 (centres undefined)	-6.0%	i	0.61
C=CC[N+](C)(C)CCCNC(=O)/C=N/O	2.9%	i	-0.86
CCCC(=Nc1ccc(N)cc1)C1=C(O)C(C(=O)OC)C(C)(C)CC1=O (centres undefined)	0.2%	i	·
CC(C)CC(C(=O)NC1CCCC1)N(Cc1cccs1)C(=O)c1snc(C(N)=O)c1N (centres undefined)	1.7%	i	·
CC1(C)Cc2c(ccc3ccccc23)C(NNC(=O)c2cccnc2)=N1	1.6%	i	·
COc1cccc(C(=O)Nc2ccc(F)c(F)c2F)c1	-4.0%	i	·
O=C(CC(O)(c1ccccc1)C(F)(F)F)c1cccs1 (centres undefined)	-1.3%	i	·
CC(=O)Nc1ccc2c(c1)nc1n2CCSC1	-3.2%	i	·
CC(C)CN1C(=O)c2ccc(C(=O)Nc3ccccn3)cc2C1=O	7.8%	i	-0.02
CCOC(=O)c1nnn(-c2nonc2N)c1CN(CC)CC	-6.5%	i	-0.54
COc1ccc(-c2csc(/C(C#N)=C(\O)CSc3nccn3C)n2)cc1OC	-3.2%	i	-0.25

Random excerpt: 2 records from the list, in no set order.
SMILES	Hsc70 ATP site	MT1-MMP reporter	WNV NS2B-NS3 inh
CCCC(=Nc1ccc(N)cc1)C1=C(O)C(C(=O)OC)C(C)(C)CC1=O (centres undefined)	0.2%	i	·
Cc1nnc(SCC(=O)N2CCCCC2)n1CC1CCCO1 (centres undefined)	1.3%	i	·

Next records
SMILES	Hsc70 ATP site	MT1-MMP reporter	WNV NS2B-NS3 inh
COc1nc(NC(C)(C)C)nc(Oc2ccc(=O)n(-c3ccccc3)n2)n1	-2.1%	i	-1.9
CN1C(=O)NC(c2ccccc2)C2=C1CN(Cc1ccccc1)C2=O (centres undefined)	-2.0%	i	-2.1
COc1cc(C(C(=O)NC(C)(C)C)N(Cc2ccccc2)C(=O)c2cnccn2)cc(OC)c1OC (centres undefined)	1.6%	i	-0.9
CCOc1cc(C(=O)O)cc(Cl)c1OCC#N	0.8%	i	-0.15
Cn1c(NC(=O)c2ccco2)cc(=O)n(C)c1=O	-4.7%	i	-1.4
Cc1cccn2c(=O)c3cc(C#N)c(=N)n(CC4CCCO4)c3nc12 (centres undefined)	1.5%	i	·
O=C1NCCCc2c1oc1ccc(O)cc21	-2.6%	i	0.69
O=S(=O)(c1ccc(Cl)cc1)n1nnc2ccccc21	-4.1%	i	·
CCC(=O)NCCC(c1ccco1)c1ccccc1OC (centres undefined)	-7.0%	i	·
Cn1c(=O)c2c(nc(NCc3ccco3)n2CC(O)COc2ccccc2)n(C)c1=O (centres undefined)	4.0%	i	-0.54
COc1cc(-c2nn3c(-c4ccco4)nnc3s2)cc(OC)c1OC	1.6%	i	0.99
COCCn1nnnc1C(c1cc2cc(C)cc(C)c2[nH]c1=O)N1CCN(c2ccccc2F)CC1 (centres undefined)	3.2%	i	-0.76
Cc1ccc(-n2c(CCC(=O)O)ccc2-c2cccs2)cc1	-7.1%	i	·
CCCCCn1c(CN2CCCCC2CC)nc2c1c(=O)n(C)c(=O)n2C (centres undefined)	2.6%	i	1.9
COc1ccc(OC)c(C(=O)c2coc3ccc(O)c(CN4CCOCC4)c23)c1	-0.8%	i	-0.91
O=S(=O)(NCc1ccccc1)c1ccc2c(c1)OCCO2	-0.1%	i	-0.93
O=C(Nc1cccc2ccccc12)C1CCN(C(=O)NCc2ccccc2)CC1	4.6%	i	·
Cc1cccc(-n2ccnc2SCC(=O)Nc2nccs2)c1	-5.3%	i	-0.72
O=C(c1ccco1)N1CCN=C1SCc1ccccc1F	-1.3%	i	-0.16
O=C(O)CSc1nnc(-c2ccccc2O)n1Cc1ccccc1	-10%	i	0.73
O=C(CC1(O)C(=O)Nc2ccccc21)c1ccccc1 (centres undefined)	1.0%	i	-2.3
O=C(Nc1ccccc1-c1ccccc1)c1cnccn1	2.0%	i	-0.42
COC(=O)c1ccc2nc(NC(=O)CN3C(=O)CCC3=O)sc2c1	-4.7%	i	-0.76
O=C(CSc1nc2ccccc2s1)NC(=O)NCc1ccco1	10%	i	-1.7
O=C(COc1cccc2ccccc12)N1CCN(c2ccccn2)CC1	-2.2%	i	-0.25
Cc1oc(C(C)(C)C)cc1C(=O)NCC(=O)NCC(=O)O	0.5%	i	-0.92
CC1CN(C(=O)c2cc3c(=O)n4ccccc4nc3s2)CC(C)O1 (centres undefined)	8.8%	i	2.6
Cc1onc(-c2ccccc2Cl)c1C(=O)N1CCCc2ccccc21	2.4%	i	1.7
CCCn1nnc(NC(=O)c2cccc(OCC(C)C)c2)n1	-1.3%	i	-0.77
Cc1cc(C)c2nc(N3CCCN(C(=O)c4cnccn4)CC3)c(C#N)cc2c1	6.4%	i	-0.66
CCc1nc(SCc2cccnc2)c(C#N)cc1C	0.9%	i	0.33
CCN(CC)c1ccc2cc(C(=O)Nc3ccccn3)c(=O)oc2c1	52%	i	-0.06
O=C(COn1nnc2ccc(Cl)cc21)NC12CC3CC(CC(C3)C1)C2	6.0%	i	·
CCOC(=O)CSc1nnnn1-c1cc(OC)ccc1OC	1.2%	i	1.6
O=C(Nc1ccc(Cl)cc1C(=O)NCC1CCCO1)c1ccco1 (centres undefined)	6.4%	i	0.4
CCOC(=O)N1CCN(C(=O)COc2ccc3c(c2)C(=O)CC2(CCN(C(C)=O)CC2)O3)CC1	7.8%	i	0.4
Cc1ccc2c(c1)c1ncnc(N3CCOCC3)c1n2C	-6.4%	i	0.82
CCn1c(=O)c(C2=NS(=O)(=O)c3ccccc3N2)c(O)c2ccccc21	-3.9%	i	0.48
O=C(Oc1cccc(Br)c1)c1cccnc1	-5.3%	i	2.4
O=C(O)c1cccc(Cn2c(Cl)c(/C=N/NC(=O)c3ccccc3)sc2=O)c1	-2.2%	i	·
Cc1nc2cc(Cl)c(Cl)cc2nc1C	-9.0%	i	1.1
O=c1c(F)cn(C2CCCO2)c(=O)n1Cc1c(F)cccc1Cl (centres undefined)	-2.1%	i	-0.01
CC1CCCC2(C1)NC(=S)N(c1ccccc1)N2 (centres undefined)	3.4%	i	·
CCC(=O)N1CCCc2cc(S(=O)(=O)N3CCN(C4CCCCC4)CC3)ccc21	3.1%	i	0.23
Cc1cccc(NC(=O)N2CCC(NC(=O)c3ccccc3C)CC2)c1	-1.6%	i	-0.84
Oc1cc(Cc2ccccc2)cnc1CN1CCCCC1	1.6%	i	-0.15
COc1cccc(CN(C)C(=O)c2ccc(S(=O)(=O)N3CCCC3)cc2)c1OC	1.3%	i	0.71
CN(C)S(=O)(=O)c1cccc(C(=O)OCC(=O)Nc2sccc2C(N)=O)c1	-8.4%	i	-0.21

Whole records, looked up by structure.
Shown for Cc1nc2cc(Cl)c(Cl)cc2nc1C : Hsc70 ATP site = -9.0%; MT1-MMP reporter = i; WNV NS2B-NS3 inh = 1.1
Shown for CCn1c(=O)c(C2=NS(=O)(=O)c3ccccc3N2)c(O)c2ccccc21 : Hsc70 ATP site = -3.9%; MT1-MMP reporter = i; WNV NS2B-NS3 inh = 0.48

(continued)
SMILES	Hsc70 ATP site	MT1-MMP reporter	WNV NS2B-NS3 inh
COC(=O)c1ccc2ccn(CC(=O)NC3CCCCC3)c2c1	5.1%	i	·
COc1ccc(Cl)cc1C(=O)OCC(=O)NC(=O)c1cccn1C	3.4%	i	·
O=C(O)c1cc2c(s1)-c1ccccc1OC2	2.9%	i	1.2
Cc1cc(=S)[nH]c2ccccc12	-1.4%	i	1.8
COc1ccc(NC(=O)c2c(OC)cccc2OC)c(OC)c1	-2.1%	i	-0.15

Hits appear at their usual frequency (roughly 0.87% active in at least one column).
